RE007 growth inh: less growth of the S. pombe RE007 Vpr strain | S. pombe RE007 Vpr strain, BacTiter-Glo ATP luminescence, 24 h; control for the full effect not named in the record | Potency, µM (titrated, usually from 92.2 µM), for inactives: at the top dose activity change, negative = less growth | 360,000 compounds, 0.21% hits | AID 651644; active = well fitted falling curve with a large enough effect; inconclusive = small, poorly fitted or top-dose-only effect; inactive = no such curve, though single readings can be large or run the other way;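 note: nearly all actives have a fitted effect of over 50% in size; the assay follows cell death caused by Vpr and the record does not say whether a fall means rescue or toxicity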
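Fission yeast RE007 carrying one integrated HIV-1 vpr copy, seeded at OD 0.01 in PMG+AL medium with 23 nL pinned compound. Grown 24 h at 30 degrees; viability read by BacTiter-Glo luminescence after 5 min.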
2A StopGo: lowers the luciferase signal of an FMDV 2A StopGo reporter. human cells with a luciferase reporter of 2A StopGo recoding; control for the full effect not named in the record. Potency, µM (series often up to 57.9 µM), for inactives: at the highest dose signal change, negative = less light. 410,000 compounds, 1.2% hits. AID 1159524; active = well fitted falling curve with a large enough effect; inconclusive = small, poorly fitted or top-dose-only effect; inactive = no such curve, though single readings can be large or run the other way; tested in HEK293T cells; note: nearly all actives have a fitted effect of over 45% in size; luciferase light after 4 h
Active calls of the source: *; u = inconclusive; [ ] = dose if it differs, or a comment. % is set by controls: 0 for no effect and ±100 for the full control effect; potency is the fitted concentration of half-maximal effect. A portion of the library; count on the stated rates, not on these rows.

Order of results – RE007 growth inh, 2A StopGo
CC(C)C[C@H]1CN(CCCC[C@@H]2CNC(=O)C(=O)N2CCc2ccccc2)C(=O)C(=O)N1CCc1ccccc1
    -10%, 13%
CCc1nc2c(OCCOc3ccccc3)cccn2c1N(C=O)Cc1ccc(OC)cc1
    -28%, -16%
CCN(CC)c1ncnc2c1ncn2[C@H]1CN(Cc2ccc3c(c2)OCO3)C[C@@H](CO)O1
    -5%, -9%
CN(Cc1cn(Cc2ccccc2)nn1)C1CN(Cc2cn(Cc3ccccc3)nn2)S(=O)(=O)C1 (configuration not stated)
    2%, -20%
CC1(C(=O)NS(=O)(=O)c2cccc(Cl)c2)CCN1C(=O)C/C=C/c1ccccc1 (configuration not stated)
    0%, -15%
CCCOc1ccccc1OCC(=O)N1CCN(CC(=O)N2CCOCC2)CC1
    2%, 1%
CCN1C(=O)[C@H]2[C@@H](c3ccc(C)cc3)N[C@]3(CCCN(Cc4ccc(F)cc4)C3=O)[C@H]2C1=O
    0%, -21%
CCNC(=O)C1CCCN(C(=O)c2cccc(C#N)c2)CC1 (configuration not stated)
    14%, -15%
COc1ccc(CN2C(=O)CN(S(C)(=O)=O)CC2(C)C(=O)Nc2ccc3c(c2)OCCO3)cc1OC (configuration not stated)
    47%, -1%
COc1cccc(C(C)(O)c2nc(-c3cccc(C(C)C)c3)cs2)c1 (configuration not stated)
    u, -27%

(continued)
Order of results – RE007 growth inh, 2A StopGo
O=C(CC[C@H]1O[C@@H](n2ccc(=O)[nH]c2=O)[C@H](O)[C@@H]1O)NCCc1c[nH]c2ccccc12
    19%, -21%
Cc1cc(Cl)ccc1-c1nc(NCc2ccccc2)nc2ccsc12
    -11%[18.4 µM], 0%
CCCc1nc2c3ccccc3ccn2c1CC1CCCCC1
    u, -17%
Cc1ccc(F)c(S(=O)(=O)NC(=O)C2(C)CCN2C(=O)Cc2ccsc2)c1 (configuration not stated)
    -8%, -11%
CCCc1c(-c2cccc(F)c2)ncn1Cc1ccccc1OC
    u, -1%
CCCCCCN1C[C@H](O)[C@@H](n2cc(-c3ccc(F)cc3)nn2)C[C@@H]1c1ccc(C)cc1
    -11%, -19%
CC(C)(C)NC(=O)CN1C(=O)c2cccc3cccc1c23
    -2%, -8%
c1cc(-c2cc3nc(NCC4CC4)ccn3n2)ccc1OCCN1CCOCC1
    -12%, 0%
Cc1cccc(C)c1NC(=O)C(CCc1ccccc1)N1CCC(c2ccccc2)CC1 (configuration not stated)
    -6%, u
COc1ccc(NC(=O)C2C(c3ccc4c(c3)OCO4)=Nc3ccccc3N2C(=O)c2cccc(C(F)(F)F)c2)cc1 (configuration not stated)
    -13%, 5%

(further entries)
Order of results – RE007 growth inh, 2A StopGo
COc1cccc(C(=O)NCC[N+](C)(C)C)c1
    -19%, -25%
CCOC(=O)C1=C(C(=O)OCC)N(CC)CCC1=O
    6%, -2%
COC(=O)CCC(=O)OC1(C)C(=O)C2=CN(Cc3ccc(OC)cc3)C(c3ccc(OC)cc3)=CC2=C(Br)C1=O (configuration not stated)
    -1%, 8%
O=S1(=O)CC(N2CCCC2)CN1Cc1cn(Cc2ccccc2)nn1 (configuration not stated)
    -19%, -18%
CCCc1cnc(Nc2nc(C(N)Cc3ccc(C(F)(F)F)cc3)cs2)nc1 (configuration not stated)
    u, -27%
COc1cccc(S(=O)(=O)N(C)C[C@@H]2OCc3cn(nn3)CCCC(=O)N([C@@H](C)CO)C[C@H]2C)c1
    16%, -7%
Cc1cccc(C)c1-n1nnnc1C1(C)CCC(=O)N1Cc1ccc(F)cc1 (configuration not stated)
    6%, -9%
CCCCNC(=O)C[C@@H]1C[C@@]2(C(=O)OCC)CCCC=C2N(Cc2ccc3c(c2)OCO3)C1=O
    -8%, 8%
Cc1ccc(CNn2cn[nH]c2=S)cc1
    1%, 4%
COc1cc(C(O)c2nc(-c3cccc(F)c3)cs2)ccc1F (configuration not stated)
    23%, -21%

Continued.
Order of results – RE007 growth inh, 2A StopGo
CCOC(=O)c1ccc(NC(=S)NCc2ccc(F)cc2)cc1
    4%, 34%[activator]
O=C1NC[C@H](CCCCN2C[C@H](Cc3ccccc3)N(CCC3CCCCC3)C(=O)C2=O)N(CCC2CCCCC2)C1=O
    -1%, 40µM*
O=c1cc(-c2ccccc2)nc2c(Cl)cc(Cl)cn12
    -1%, 33%[activator]
CCCS(=O)(=O)NC(=O)C1(C)CCCN(C(=O)c2ccc(OC)cc2)C1 (configuration not stated)
    8%[18.4 µM], -10%
O=C(O)c1c[nH]c2nccnc12
    2%, 0%
O=C(/C=C/[C@H]1O[C@@H](n2cnc3c(NC(=O)c4ccccc4)ncnc32)[C@H](O)[C@@H]1O)NCC(c1ccccc1)c1ccccc1
    4%, -16%
COc1ccc(-c2cnc3c(NC(C)=O)cc(-c4ccc(S(C)(=O)=O)cc4)cn23)cc1OC
    13%, -9%
CS(=O)(=O)Nc1cccc(NC(=O)c2cccc3c(-c4cccnc4)coc23)c1
    -16%, -15%
NC(=O)c1ncn([C@@H]2O[C@H](CNCc3ccc(OCC(=O)Nc4ccccn4)cc3)[C@@H](O)[C@H]2O)n1
    -14%, 5%
CCCCc1c(-c2ccccc2OC)ncn1CCc1ccc(Cl)cc1
    -19%, u

Additional records follow:
Order of results – RE007 growth inh, 2A StopGo
Cn1cnc([N+](=O)[O-])c1Sc1ccncn1
    -12%, -23%
O=C(Nc1ccc(F)cc1)C(c1ccnc2ccccc12)N1CCN(c2cccc(C(F)(F)F)n2)CC1 (configuration not stated)
    -3%, -13%
CC(=O)c1cccc(NC(=O)C2(C)Cc3c(-c4cccc(C(N)=O)c4)ccnc3O2)c1 (configuration not stated)
    6%[18.4 µM], 0%
COc1ccc(Cc2nc3ccc(C(=O)N(C)Cc4nccn4C)cc3o2)cc1
    -5%, -1%
Cc1nc2cc(Oc3nc(NCCN(C)C)nc4ccsc34)ccc2s1
    3%[18.4 µM], -9%
Cc1ccc(Cn2cc(CN3CC(N4CCCC4)CS3(=O)=O)nn2)cc1 (configuration not stated)
    -8%, -4%
Cc1ccc(CN2C(=O)C(Cc3ccccc3)Nc3ncnc(N4CCOCC4)c32)cc1 (configuration not stated)
    10%, 0%
O=c1ccn([C@@H]2O[C@H](CNCc3ccccc3)[C@@H](O)[C@H]2O)c(=O)[nH]1
    -12%, 0%
Cc1ccc(OCCN2CCC2(C)C(=O)Nc2ccc3c(c2)OCO3)cc1 (configuration not stated)
    0%[18.4 µM], 10%
OC[C@H]1O[C@@H](c2nc(-c3nc(-c4ccc(F)cc4)no3)cs2)[C@H](O)[C@@H](O)[C@H]1O
    -13%[18.4 µM], 23%

In a second layout: seven of the compounds above
Compound	RE007 growth inh	2A StopGo
CC1(C(=O)NS(=O)(=O)c2cccc(Cl)c2)CCN1C(=O)C/C=C/c1ccccc1 (configuration not stated)	0%	-15%
CCCOc1ccccc1OCC(=O)N1CCN(CC(=O)N2CCOCC2)CC1	2%	1%
CCN1C(=O)[C@H]2[C@@H](c3ccc(C)cc3)N[C@]3(CCCN(Cc4ccc(F)cc4)C3=O)[C@H]2C1=O	0%	-21%
CCNC(=O)C1CCCN(C(=O)c2cccc(C#N)c2)CC1 (configuration not stated)	14%	-15%
COc1ccc(CN2C(=O)CN(S(C)(=O)=O)CC2(C)C(=O)Nc2ccc3c(c2)OCCO3)cc1OC (configuration not stated)	47%	-1%
COc1cccc(C(C)(O)c2nc(-c3cccc(C(C)C)c3)cs2)c1 (configuration not stated)	u	-27%
O=C(CC[C@H]1O[C@@H](n2ccc(=O)[nH]c2=O)[C@H](O)[C@@H]1O)NCCc1c[nH]c2ccccc12	19%	-21%

(listing goes on)
Order of results – RE007 growth inh, 2A StopGo
NC(Cc1ccc(C(F)(F)F)cc1)c1csc(NC(=O)Nc2ccccc2)n1 (configuration not stated)
    24%, -24%
CC(C)NC(=O)N(C)C[C@H]1Oc2ncc(Br)cc2C(=O)N([C@H](C)CO)C[C@@H]1C
    -4%, -24%
Cc1ccc2nc(-c3ccccc3)c(Cc3ccccn3)n2c1
    u, 0%
CCCCCNC(=O)C1C(=O)Nc2ccccc2C(=O)N1c1c(C)cccc1C (configuration not stated)
    -3%, -1%
c1ccc(COc2cccc(-c3cc4nc(NCc5ccc6c(c5)OCO6)ccn4n3)c2)cc1
    3%, -25%
CC(C)CCNC(=O)c1onc(CSc2ccccc2)c1C(=O)NCCC(C)C
    6%, -12%
Fc1ccc(-c2nc3c(Cl)cc(C(F)(F)F)cn3c2Cc2ccccc2)cc1
    4%, 4%
Cc1cccnc1C(NC(=O)C1CCN(CCOc2ccc(F)cc2)CC1)c1ccc(F)cc1 (configuration not stated)
    -10%[18.4 µM], -29%
CC(=O)c1sc(Nc2ccc(Oc3ccccc3)cc2)nc1C
    -14%, 33%[activator]
O=C1NC[C@H](CCCCN2C[C@H](Cc3ccccc3)N(CCc3ccc(O)cc3)C(=O)C2=O)N(CCC2CCCCC2)C1=O
    -1%, -16%

The list goes on:
Order of results – RE007 growth inh, 2A StopGo
CCOC(=O)C1CCN(C(=O)c2ccccc2)c2scc(-c3ccccc3)c2C1=O (configuration not stated)
    -1%, 32µM*
COc1ccc(CN(C)C(=O)[C@H]2O[C@@H](n3cnc4c(N)ncnc43)[C@H](O)[C@@H]2O)cc1OC
    4%, -9%
Cc1ccc(-c2csc(C(O)(c3ccccc3)C(F)(F)F)n2)cc1C (configuration not stated)
    u, 11%
O=C(Nc1cccc(Cc2ccccc2)c1)Nc1ccc2nc([C@@H]3O[C@H](CO)[C@@H](O)[C@H](O)[C@H]3O)[nH]c2c1
    u, 3%
COc1ccc(C(C)(NC(C)=O)c2nc(-c3cccc4cccnc34)cs2)cc1 (configuration not stated)
    -15%[18.4 µM], -13%
CCC(c1nnnn1-c1ccc2c(c1)OCCO2)N1CCc2ccccc2C1 (configuration not stated)
    -3%, -8%
COc1cc(/C=C2\C(=O)N(c3cccc(C(=O)O)c3)N=C2C)ccc1OCc1ccccc1
    -7%, 45%[activator]
CC(=O)C(=Cc1ccc(-c2ccccc2)cc1)C(=O)c1ccccc1
    -6%, 22µM*
CCCCCCCCN1C(=O)[C@H](CC(=O)NCc2cccc3ccccc23)C[C@@]2(C(=O)OC)CC(C)(C)CC=C12
    -4%, -11%
CCCc1ccc(C(O)c2ncc(-c3ccccc3C)[nH]2)cc1 (configuration not stated)
    -24%, 26%

Other results:
Order of results – RE007 growth inh, 2A StopGo
COc1ccccc1C(=O)NNC(=O)c1ccc2ccccc2c1O
    -14%, 35%[activator]
O=C(Nc1ccc2c(c1)OCO2)c1cc(C2CCCCN2S(=O)(=O)Cc2ccccc2)on1 (configuration not stated)
    2%, 71%[activator]
O=C(Nc1cnns1)Oc1ccccc1
    5%, -17%
CC(=O)NCCc1nc(-c2ccc(Cl)cc2)no1
    -12%, 17%
CC(=O)NC(CC(=O)N1CCCC1)c1ccccc1 (configuration not stated)
    -10%, -5%
C#CCNC(=O)C[C@@H]1C[C@@]2(C(=O)OCC)CCC=C2N(CCC2=CCCCC2)C1=O
    0%, -1%
COC(=O)C(C(=O)OC)c1ccccc1NS(=O)(=O)c1c(C)cc(C)cc1C
    -5%, -10%
Oc1ccc(C[C@H]2CNC(=S)N2CC2CCCN2C[C@H](Cc2ccccc2)N2C[C@H](Cc3ccc(O)cc3)N(CC3CCCCCC3)C2=S)cc1 (some centres not stated)
    -3%, u
CC1CN(C(=O)COC(=O)c2ccc3ccccc3c2)CC(C)O1 (configuration not stated)
    7%, 10%
CCCCCc1c(-c2cccc(Br)c2)ncn1CCc1ccccc1OC
    -27%, u

Further results:
Order of results – RE007 growth inh, 2A StopGo
CC(Cc1ccccc1)NC(=O)CCNNC(=O)c1ccncc1 (configuration not stated)
    -9%, -17%
CCn1ncc(CN2CCC(n3nccc3NC(=O)c3ccccc3Cl)CC2)c1C
    1%, 0%
O=C1NC[C@H](CCCCN2C[C@H](Cc3ccc(O)cc3)N(CCc3ccccc3)C(=O)C2=O)N(CCC2CCCCC2)C1=O
    18%, -10%
Cn1c(NCCOc2ccccc2)nc2cc(-c3ccc(F)cc3)sc2c1=O
    15%, -22%
CCCCCCN1C[C@@H](n2cc(-c3ccc(F)cc3)nn2)[C@H](O)C[C@@H]1c1ccc(OC)cc1
    -9%, u
CC1CCC2(CC1)NC(=O)N(CC(=O)c1ccc3c(c1)OCO3)C2=O (configuration not stated)
    6%, -16%
COc1ccc(-c2cncc3nccn23)cc1OC
    0%, -11%
Cc1cc(C)c2cc(C#N)c(NCCCNC(=O)c3ccncc3)nc2c1
    5%, -25%
COCCNC(=O)C1(C)CCCN(Cc2cc(C)ccc2C)C1 (configuration not stated)
    2%, -16%
CN(C(=O)C(C)(C)C)[C@H]1C[C@H]2c3[nH]c4ccccc4c3CCN2C(=O)[C@H]1CO
    -8%, -29%

Further records follow:
Order of results – RE007 growth inh, 2A StopGo
COc1ccncc1-c1csc(C(O)c2ccccc2)n1 (configuration not stated)
    -18%, -16%
CSC[C@H]1CN(c2ccccc2)C(=O)[C@@H]1CC(=O)Nc1ccc(Br)cc1
    -8%, -3%
CCc1nc2c(OCc3ccc(C(F)(F)F)cc3)cccn2c1N(C)C(=O)C(C)C
    -22%, u
CC1CC(C)(C)CC2(C1)NC(=O)N(CC(=O)Nc1ccc3c(c1)OCO3)C2=O (configuration not stated)
    1%, 6%
